From PubChem
FGF22 binding = binders of recombinant human FGF22 by thermal shift | actives 1.5% (n = 340,000) | AID 651658 | Q9HCT0 | SYPRO orange fluorescence; percent of sucrose octasulfate shift, DMSO zero | calls only at 9.99 µM;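 active = melting point raised past a set limit in the mean and every replicate; three in four hits are not shown here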
Target sequence (Q9HCT0 whole entry, looked up): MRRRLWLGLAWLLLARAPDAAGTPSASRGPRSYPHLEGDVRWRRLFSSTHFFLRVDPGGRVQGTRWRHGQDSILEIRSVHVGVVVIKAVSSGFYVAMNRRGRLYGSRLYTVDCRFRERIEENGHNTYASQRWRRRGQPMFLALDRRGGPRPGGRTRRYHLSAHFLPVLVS
ALR H2O2 inh = inhibitors of human sulfhydryl oxidase ALR; actives 3.8% (n = 290,000); inhibition, % (concentration not given with the values); P55789; purified ALR, DTT oxidation, H2O2 HRP-luminol luminescence;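 active = mean and each replicate at 75% or more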;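 also: stock transfer was 7.5 nL into about 7.5 µL; 0% = neutral wells and 100% = wells with inactivated enzyme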
Target sequence (P55789 whole entry, looked up): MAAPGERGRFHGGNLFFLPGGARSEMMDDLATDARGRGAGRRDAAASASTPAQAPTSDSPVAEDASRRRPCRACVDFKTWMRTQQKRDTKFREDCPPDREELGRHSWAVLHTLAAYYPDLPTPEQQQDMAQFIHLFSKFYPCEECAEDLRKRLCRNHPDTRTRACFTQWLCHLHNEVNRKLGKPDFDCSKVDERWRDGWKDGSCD
Ecoli growth = blocks Escherichia coli growth | OD600, 23 h; stronger effect = lower value | OD600 absorbance (test concentration not listed) | actives 0.21% (n = 330,000) | AID 1053175;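 active = OD600 absorbance below the run mean of sample wells minus 3.6 SD, in any replicate, cut at about 0.56 in these data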;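 also: stock transfer was 300 nL into about 60 µL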
Ecoli rRNA inh = inhibits bacterial ribosomal RNA function over humanized ribosomes; GFP signal change (wild-type ribosome), % (concentration not given with the values); actives 1.6% (n = 350,000); E. coli WT GFP vs humanized-ribosome RFP mutants, fluorescence, 24 h; stronger effect = lower value; DMSO median 0, no signal -100; AID 720706;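 active = significant combined selectivity score with lowered wild-type GFP, culture density cut under 30%, mutant RFP and density less affected; inactive = any of these conditions unmet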; also: one replicate is shown; some compounds called inactive have numbers as strong as hits
HNF4A DNA FP = change in binding of human HNF4 alpha to DNA; P41235; HNF4a-FITC DNA binding, fluorescence polarization, 1 h; activity change, % at 10 µM; actives 0.3% (n = 360,000); AID 1224865; in the data active = activity change above about 30%, passing the limit was not always enough;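 also: controls were the assay level and a saturating level of protein; the project sought stronger binding though the title names inhibitors; some compounds called inactive have numbers as strong as hits; positive values seem to mean higher polarization but the record does not say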
Vif A3G = inhibitors of Vif binding to APOBEC3G peptide, primary screen, biochemical, TR-FRET, GST-Vif 1-94, biotin-A3G peptide, dose response retest (AID 1117319). TR-FRET GST-Vif / biotin-A3G peptide binding; higher % means a stronger effect; test concentration not given here; strong numbers were not always called active. one-dose inhibition, %; IC50 in µM for titrated hits. actives 0.57% (n = 260,000);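 active = above the screen mean plus three standard deviations and confirmed in dose response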;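 also: Vif residues 1-94 fused to GST binding biotinylated APOBEC3G peptide 110-148; 0% = full assay without inhibitor and 100% = GST in place of GST-Vif; retest series ran down from 100 µM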
AF4-AF9 inh = blocks AF4 peptide binding to human AF9; P42568; AlphaScreen, biotin-AF4 peptide binding to FLAG-AF9; inhibition, % at 10 µM; actives 0.47% (n = 350,000); AID 651704;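 active = every replicate reaching a set inhibition limit, whatever the replicate mean, cut at about 25% in these data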;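 also: 0% = plate neutral control median and 100% = total signal loss; the record names both 10 and 1 µM as test concentration; the first replicate is given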
Target sequence (P42568 whole entry, looked up): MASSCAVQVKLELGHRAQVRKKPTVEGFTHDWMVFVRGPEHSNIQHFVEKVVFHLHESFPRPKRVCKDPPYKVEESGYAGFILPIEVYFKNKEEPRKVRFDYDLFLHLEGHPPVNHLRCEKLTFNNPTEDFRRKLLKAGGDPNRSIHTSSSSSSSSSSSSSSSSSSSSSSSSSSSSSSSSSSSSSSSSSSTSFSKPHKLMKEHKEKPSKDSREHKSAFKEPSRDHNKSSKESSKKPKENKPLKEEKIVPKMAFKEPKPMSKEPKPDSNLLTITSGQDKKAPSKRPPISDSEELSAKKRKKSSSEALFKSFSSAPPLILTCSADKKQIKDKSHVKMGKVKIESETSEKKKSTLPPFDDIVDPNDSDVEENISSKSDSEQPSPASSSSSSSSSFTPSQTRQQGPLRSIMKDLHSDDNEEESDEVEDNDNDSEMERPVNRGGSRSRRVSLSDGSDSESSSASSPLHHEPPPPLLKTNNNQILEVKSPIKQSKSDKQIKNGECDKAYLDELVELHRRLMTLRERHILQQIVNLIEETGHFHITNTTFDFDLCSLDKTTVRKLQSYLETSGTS
Ecoli rRNA inh OD600 = recorded beside Ecoli rRNA inh, whose call it bears; OD600 change, %; measured here: OD600 growth;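 optical density of the mix in the first replicate; 0 = DMSO median and -100 = no signal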
Ecoli rRNA inh RFP = also measured in Ecoli rRNA inh; calls as there; RFP signal change, %; measured here: RFP humanized mutant strains;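 first replicate; 0 = DMSO median and -100 = no signal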
An asterisk follows results filed as active; i = inactive; . = no result given; + = active, no number; & = joins results of further samples. This is a subset. The share of hits here may be higher or lower than overall.

SMILES | FGF22 binding | ALR H2O2 inh | Ecoli growth | Ecoli rRNA inh | Ecoli rRNA inh OD600 | Ecoli rRNA inh RFP | HNF4A DNA FP | Vif A3G | AF4-AF9 inh
CCCN1CCC(NC(=O)CCc2nnc(Cc3cc(OC)ccc3OC)o2)CC1 | i | 1 | 0.62 | 14 | 15 | 0.9 | -1.2 | 1% | 0.1
C[C@@H]1CN([C@@H](C)CO)C(=O)c2cc(C#CC3CC3)cnc2O[C@@H]1CN(C)Cc1ccccn1 | i | . | . | 7 | 14 | -2.5 | . | . | -4.0
C(=N/Nc1nc(-c2ccccc2)cc(-c2ccccc2)n1)/c1cccnc1 | i | . | . | -1 | 4 | 12 | 1.6 | . | -3.7
Cc1ccc(C2NC(=O)c3n[nH]c(C)c32)cc1 (centres undefined) | i | . | . | 12 | 23 | -1.6 | . | . | -5.0
CCOC(=O)CCC(=O)N1CCOCCOCCOCC1 | . | 1 | 0.7 | . | . | . | 0.5 | 1% | .
CC(Oc1cc2oc(=O)c3c(c2cc1Cl)CCC3)C(=O)NCc1ccncc1 (centres undefined) | i | -1 | 0.68 | -8 | -14 | -0.4 | -3.9 | . | 0.7
Cc1ccsc1C(=O)N1CCN(c2ccccn2)CC1 | i | . | 0.66 | 17 | 13 | 1.1 | 2.2 | -1% | -1.6
O=C(Cn1c(SCc2ccccc2)nc2ccccc21)N1CCOCC1 | . | -15 | 0.71 | . | . | . | -3.8 | 27% | .
COCCN1CC(CNC(=O)c2cc(COc3ccc(C)c(C)c3)on2)CC1=O (centres undefined) | i | -2 | 0.66 | -1 | -2 | 0.7 | -1.8 | . | -1.0
CC1CCN(C(=O)Cn2cc(C#N)c3ccccc32)CC1 | . | -1 | 0.73 | . | . | . | 0.3 | 2% | .
COc1ccc2c(c1)CC/C2=N\OC(=O)c1ccccc1C | i | -3 | . | 10 | 4 | 0.3 | -2.1 | -9% | -2.8
CNc1cc(-c2ccc(C(=O)OC)cc2)ncn1 | i | . | . | 0 | 4 | -3.7 | -0.2 | . | -1.2
Cc1nc2cc(NCc3ccccc3O)ccc2n1Cc1ccccc1 | i | 57 | 0.62 | -25 | -22 | -5.7 | -0.3 | . | 5.1
O=C(Nc1cccc(S(=O)(=O)N2CCCCC2)c1)[C@@H]1CCCN1S(=O)(=O)c1ccccc1C(F)(F)F | i | . | 0.74 | -5 | -16 | 0.7 | 4.5 | . | 4.4
CCCCC(=O)Nc1cccc(-c2nn3c(C)nnc3s2)c1 | . | 1 | 0.74 | . | . | . | 1.1 | -2% | .
CC(C)C[C@H]1COCn2nncc2CC[C@H](C)C(=O)N1 | i | . | . | 2 | 6 | -2.1 | . | . | -4.7
O=C(O)c1ccccc1-c1c2cc(I)c(=O)c(I)c-2oc2c(I)c(O)c(I)cc12 | i | 82* | 0.69 | 70 | -17 | 52 | -99&-101 | . | -2.2&-2.1
Cc1noc(C)c1NC(=O)N(C)C[C@H]1Oc2ccc(NC(=O)CCC(F)(F)F)cc2CC(=O)N([C@@H](C)CO)C[C@H]1C | i | . | . | 2 | 6 | -1.6 | . | . | -10
COc1ccc(CCNC(=O)CSc2nc(O)cc(=O)[nH]2)cc1OC | i | 95* | 0.72 | 8 | 3 | -6.4 | 1.1 | . | -3.4
O=C(Nc1ccccc1C(=O)N1CCN(c2cccc(Cl)c2)CC1)C1=CSCCO1 | i | -2 | 0.66 | -11 | -21 | -2.6 | -1.5 | . | 11
O=C(O)Cc1sc(N/N=C\c2ccncc2)nc1-c1ccccc1 | i | 48 | . | -4 | 7 | 2.3 | 21 | . | .
CC1(c2cccc(Br)c2)NC(=O)N(CC(=O)NCC2CCCO2)C1=O (centres undefined) | i | -1 | 0.71 | . | . | . | 3.7 | 14% | -1.1
CCOC(=O)CN1C(=O)C(CC)Oc2ccc(Cl)cc21 (centres undefined) | i | 1 | 0.67 | -30* | -13* | -4.8* | 2.5 | 0% | -7.1
CCC1CCCCN1CCCNC(=O)CCNC(=O)Cn1cnc2ccccc2c1=O (centres undefined) | i | . | 0.69 | 4 | 0 | 2.0 | -1.8 | . | -9.8
CN(C)S(=O)(=O)N(CC(=O)Nc1ccc2ccccc2c1)c1ccccc1 | . | -10 | 0.77 | . | . | . | -3.5 | -3% | .
CCn1cc(C(=O)NCc2ccc3c(c2)OCO3)c(=O)c2cc(S(=O)(=O)N(C)C)ccc21 | i | 1 | 0.69 | -2 | -10 | 5.5 | 2.7 | 0% | 3.0
O=S(=O)(NCC1COc2ccccc2O1)c1ccccc1F (centres undefined) | i | -6 | 0.7 | 1 | -9 | -0.9 | -1.8 | . | -2.2
COc1cccc(OC)c1OC(=O)/C=C/c1ccc(C)o1 | i | . | 0.68 | -2 | -5 | -0.5 | -2.5 | . | 3.6
Cc1ccc(C)c(NC(=S)N(C)C)c1 | i | -1 | 0.68 | 9 | 9 | -1.5 | 1.4 | -2% | -2.5
CCC1Oc2ccccc2N(CC(=O)NCCN2CCCC2)C1=O (centres undefined) | i | -3 | 0.69 | 7 | 11 | 2.7 | 3.1 | . | 2.3

Profiles as entered above. Order of screens: FGF22 binding, ALR H2O2 inh, Ecoli growth, Ecoli rRNA inh, Ecoli rRNA inh OD600, Ecoli rRNA inh RFP, HNF4A DNA FP, Vif A3G, AF4-AF9 inh
O=S(=O)(NCC1COc2ccccc2O1)c1ccccc1F (centres undefined) in the list: i, -6, 0.7, 1, -9, -0.9, -1.8, ., -2.2
CCC1Oc2ccccc2N(CC(=O)NCCN2CCCC2)C1=O (centres undefined) in the list: i, -3, 0.69, 7, 11, 2.7, 3.1, ., 2.3

New compounds follow.
SMILES | FGF22 binding | ALR H2O2 inh | Ecoli growth | Ecoli rRNA inh | Ecoli rRNA inh OD600 | Ecoli rRNA inh RFP | HNF4A DNA FP | Vif A3G | AF4-AF9 inh
CCCN(C[C@@H]1[C@@H](c2ccccc2)[C@H](CO)N1C(C)=O)C(=O)NC(C)C | i | . | . | 3 | 7 | -2.0 | . | . | -3.1&-3.5
CCCCOc1ccc(C(=O)Nc2cc(C)c(OCC(=O)N3CCOCC3)c(C)c2)cc1 | . | . | 0.72 | . | . | . | 2.1 | -7% | .
CCN(CC)CCCN1C(=O)C(=O)/C(=C(/O)c2ccc3c(c2)OCCO3)C1c1ccco1 (centres undefined) | . | 0 | 0.73 | . | . | . | -1.0 | 10% | .
CC(C)C[C@H](NC(=O)NCCC1=CCCCC1)C(=O)O | i | -28 | 0.69 | 6 | -2 | 1.2 | -1.4 | 0% | 3.4
CN1CCN(S(=O)(=O)c2ccc(NC(=O)c3cccc(F)c3)cc2)CC1 | i | -20 | 0.63 | 14 | 8 | 1.1 | -1.8 | . | -0.1
CCCN(C)C[C@H]1OCCCC[C@H](C)Oc2ccc(NC(=O)C3CCCCC3)cc2C(=O)N([C@@H](C)CO)C[C@H]1C | i | . | . | 1 | 3 | 1.4 | . | . | -0.1
COc1ccc(-n2c(SCC(=O)Nc3cccc(C(=O)O)c3)nnc2-c2ccco2)cc1 | i | 8 | 0.71 | 1 | 2 | -0.3 | 2.0 | . | 0.6
Cc1ccc(NC(=S)N2CCN(S(C)(=O)=O)CC2)cc1Cl | i | -6 | 0.72 | 0 | -6 | -2.2 | 1.0 | . | -6.4
CO[C@H]1CN(C)C(=O)c2ccc(NS(=O)(=O)c3cn(C)cn3)cc2OC[C@@H](C)N(CC2CC2)C[C@H]1C | i | . | . | 5 | 9 | -2.5 | . | . | 1.4
CC(C)CC(=O)Nc1nnc(CCc2ccccc2)s1 | i | -20 | 0.64 | 6 | 6 | 2.3 | 2.4 | . | -4.2
O=C(NNC(=O)c1cccc2ccccc12)c1cccc(Cl)c1 | i | . | 0.68 | -17 | -8 | -4.5 | -0.5 | -7% | -1.1
CCN(CC(=O)NCc1cccs1)CC(=O)Nc1ccc(C(N)=O)cc1 | i | -5 | 0.72 | 2 | 10 | -2.1 | 1.0 | . | 0.5
CC(NC(=O)Nc1ccc(F)cc1F)c1ccc2c(c1)OCO2 (centres undefined) | i | -16 | 0.68 | 1 | -6 | -1.6 | 1.6 | . | -0.6
Nc1cc(C(=O)c2cccs2)ccc1Cl | . | -4 | 0.68 | . | . | . | -0.3 | . | .
CCCNC(=O)[C@@H]1[C@@H](CO)[C@@H]2Cn3c(ccc(-c4ccccc4OC)c3=O)[C@@H]2N1CC | i | . | . | -1 | 3 | -2.5 | . | . | -2.3
COc1ccc(/C=C/C(=O)O)cc1S(=O)(=O)Nc1ccc2c(c1)OCO2 | i | 3 | 0.71 | 8 | 1 | -1.8 | 0.1 | 1% | -2.7
CCOc1ccccc1NC(=O)CSc1nnnn1-c1ccccc1 | . | -5 | 0.79 | . | . | . | 1.0 | 1% | .
CC(NC(=O)C1CCN(C(=O)Nc2ccccc2)CC1)c1ccc(Cl)cc1 (centres undefined) | i | . | 0.67 | -6 | -7 | -7.0 | -1.6 | -5% | -0.6
O=C(Nc1ccccc1F)c1cc(S(=O)(=O)N2CCOCC2)cs1 | i | -2 | 0.7 | 3 | 7 | 1.4 | 1.9 | 5% | -3.1
Cc1cccc(C2CC(c3ccccc3)Nc3nc(N)nn32)c1 (centres undefined) | i | 43 | 0.73 | -5 | -9 | -0.7 | 0.7 | 1% | 0.0

Fetched one by one from the entries so far (four):
SMILES | FGF22 binding | ALR H2O2 inh | Ecoli growth | Ecoli rRNA inh | Ecoli rRNA inh OD600 | Ecoli rRNA inh RFP | HNF4A DNA FP | Vif A3G | AF4-AF9 inh
CCCNC(=O)[C@@H]1[C@@H](CO)[C@@H]2Cn3c(ccc(-c4ccccc4OC)c3=O)[C@@H]2N1CC | i | . | . | -1 | 3 | -2.5 | . | . | -2.3
CCN(CC)CCCN1C(=O)C(=O)/C(=C(/O)c2ccc3c(c2)OCCO3)C1c1ccco1 (centres undefined) | . | 0 | 0.73 | . | . | . | -1.0 | 10% | .
Nc1cc(C(=O)c2cccs2)ccc1Cl | . | -4 | 0.68 | . | . | . | -0.3 | . | .
COc1cccc(OC)c1OC(=O)/C=C/c1ccc(C)o1 | i | . | 0.68 | -2 | -5 | -0.5 | -2.5 | . | 3.6

Other records
SMILES | FGF22 binding | ALR H2O2 inh | Ecoli growth | Ecoli rRNA inh | Ecoli rRNA inh OD600 | Ecoli rRNA inh RFP | HNF4A DNA FP | Vif A3G | AF4-AF9 inh
O=C(CCCN1C(=O)NC2(CCCC2)C1=O)Nc1ccc(Cl)c(S(=O)(=O)N2CCOCC2)c1 | i | . | 0.71 | 4 | 6 | -1.4 | -0.5 | 3% | -8.6
Cc1nnc(SCC(=O)N(CC(C)C)C2CCS(=O)(=O)C2)n1N (centres undefined) | i | -8 | 0.65 | 2 | 3 | 2.3 | 3.4 | -11% | -4.5
O=C(COc1ccccc1)NC(NC(=S)Nc1ccccc1C(=O)O)C(Cl)(Cl)Cl (centres undefined) | . | 28 | 0.66 | . | . | . | 0.6 | -4% | .
COC(=O)/C=C/c1cccc([C@H]2[C@@H]3C=CC[C@@H](C)[C@@H]3C(=O)N2Cc2ccccc2)c1 | i | . | 0.74 | -19* | -4.5* | 0.0* | -0.5 | -5% | 6.3
CN1CCN(C(=O)C23CCC(C)(c4nc5ccccc5nc42)C3(C)C)CC1 (centres undefined) | . | -2 | 0.74 | . | . | . | -0.5 | 2% | .
O=C(COC(=O)c1cccnc1)Nc1cccc(Cl)c1 | . | . | 0.66 | . | . | . | 3.9 | -4% | .
CCN(CC)c1nc2ccccc2nc1C(C#N)C(=O)NCCc1ccccc1 (centres undefined) | . | -8 | 0.68 | . | . | . | -49 | -2%&-2% | .
O=C(COc1cccc2c1CCN(Cc1ccc(Cl)cc1)C2=O)N1CCOCC1 | i | -6 | 0.71 | 3 | 0 | 3.3 | 0.3 | 6% | 2.5
C/C(=N\NC(=O)c1nnn(-c2nonc2N)c1CSc1ccc(C)cc1)c1cccnc1 | + | . | . | -7 | -18 | 2.3 | -1.8 | -1% | -4.2
